Screens (PubChem)
HPGD block: blocks human HPGD enzyme activity | 150,000 tested, 4.3% active | purified HPGD, NADH fluorescence kinetic, PGE2 substrate | Potency, µM, for the others: at the top dose activity change, negative = inhibition, actives largely listed as inhibitors | AID 894; active = well fitted inhibition curve with a large enough effect (not every such curve was filed as active); inconclusive = small, poorly fitted or top-dose-only effect, or another doubt; inactive = no such curve, though single readings can be large or run the other way;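 also: top concentration of the series not given in the record; plate controls included wells without enzyme; inactives centre near -10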
Target sequence (P15428 whole entry, looked up): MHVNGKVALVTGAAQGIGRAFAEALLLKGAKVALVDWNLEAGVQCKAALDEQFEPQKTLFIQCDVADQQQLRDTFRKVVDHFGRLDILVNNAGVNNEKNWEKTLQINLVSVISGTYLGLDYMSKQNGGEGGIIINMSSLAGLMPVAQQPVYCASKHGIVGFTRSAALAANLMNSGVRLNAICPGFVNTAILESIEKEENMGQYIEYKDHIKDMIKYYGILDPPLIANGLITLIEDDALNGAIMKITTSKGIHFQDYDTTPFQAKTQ
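NADH formation kinetics: reaction with 30 uM PGE2 and 1 mM NAD+ (final), 20 nM enzyme, Tris-HCl pH 8 with Tween 20, after 15 min compound preincubation at room temperature. Fluorescence change, last versus first of five reads.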
Starred values were filed as active, the others as inactive; ? = inconclusive; & = joins results of further samples. % is scaled to controls: 0 for no effect and ±100 for the full control effect; potency is read from the fitted curve at half-maximal effect. This is a subset. The share of hits here may be higher or lower than overall.

HPGD block | molecule
-14% | CCCc1cc(=O)[nH]c(SCCOc2ccc(Cl)cc2)n1
-9% | COC(=O)c1nc2n(n1)C(c1ccc([N+](=O)[O-])cc1)C(C(=O)Nc1ccc(Cl)cc1)=C(C)N2 (configuration not stated)
-13% | Cc1nc2nc(COc3ccccc3)nn2c(C)c1Cl
-17% | Cc1ccc(-c2nn3c(C)nnc3s2)cc1NC(=O)c1ccc(Br)o1
-17% | COC(=O)c1cc2oc(C)cc2n1CC(=O)N1CCCc2ccccc21
-15% | COc1cc(C)ccc1OCCCON1C(=O)CCC1=O
-11% | Cn1cnc([N+](=O)[O-])c1Nc1cccc(O)c1
-5% | N/C(=N\OC(=O)CC1CCCCC1)c1ccccn1
-1% | CCOc1ccc(-n2c(SCc3cc(=O)oc4cc(C)ccc34)nnc2-c2cccnc2)cc1
-8% | COCCn1c(-c2ccc(OC)cc2)cnc1SCC(=O)Nc1cc(C)on1
? | Cc1nc(Nc2ccc(S(=O)(=O)N3CCCCC3C)cc2)c2nnn(Cc3ccccc3)c2n1 (configuration not stated)
-13% | CCOC(=O)c1ccc(NC(=S)Nc2ccccc2)cc1

The list goes on.
HPGD block | molecule
16µM* | O=C(O)c1ccc(C[n+]2c(-c3ccccc3)csc2Nc2ccccc2)cc1
-8% | CCCCn1c(O)c(N=Nc2ccccn2)c2ccccc21
-1% | COC(=O)C1C(c2ccccc2)C(C(=O)N2CCN(C)CC2)C1c1ccccc1 (configuration not stated)
-15% | O=C(OCc1ccc(COC(=O)c2ccccn2)cc1)c1ccccn1
-6% | COc1ccc(-c2noc(COc3ccccc3OC)n2)cc1OC
-10% | CCN1CCN(CCNC(=O)c2ccc(CS(=O)(=O)c3c(Cl)cccc3Cl)o2)CC1
-14% | O=C(c1ccc(CN2CCc3ccccc3C2)cc1)N1CCN(c2ccccc2)CC1
-21% | COc1cccc(NC(=O)CC2S/C(=N\S(=O)(=O)c3ccccc3)N(c3ccccc3)C2=O)c1 (configuration not stated)
-24% | COc1ccc(CNC(=O)C(c2ccco2)N(Cc2cccs2)C(=O)Cc2cccs2)cc1 (configuration not stated)
-4% | C=CCN1C(=O)C2C(C(=O)NC)C3(C)C=CC2(O3)C1C(=O)NCc1ccc(OC)cc1 (configuration not stated)
-10% | O=C(NNC(=O)C1COc2ccccc2O1)c1ccccc1 (configuration not stated)
-9% | OCc1nc2ccccc2n1CCCOc1ccccc1

Next part
HPGD block | molecule
-10% | O=C(/C=C/c1cccs1)c1cc(Br)ccc1OC(=O)N1CCOCC1
-22% | CCOC(=O)C1=C(Nc2ccccc2)CC(C)(O)C(C(=O)OCC)C1c1ccccc1 (configuration not stated)
2% | COc1cc2c(cc1OC)/C(=C/c1ccc(Cl)cc1)C(=O)OC2
-9% | CC1Cc2ccccc2N1C(=S)NC(=O)c1cccc(Br)c1 (configuration not stated)
-13% | COc1ccc(CNC(=O)CSc2nnc(-c3ccc(NC(C)=O)cc3)n2C)cc1
-10% | CC(=O)N1CCc2cc(S(=O)(=O)CCC(=O)N3CCN(C(=O)c4ccco4)CC3)ccc21
? | COc1ccc(-c2csc(NC(=O)C3CCCO3)n2)cc1 (configuration not stated)
? | COc1ccc2[nH]c(=O)c(CN(Cc3ccc(C)cc3)Cc3nnnn3CC3CCCO3)cc2c1 (configuration not stated)
-14% | CC1(C)Cc2c(sc(/N=C/N3CCCCC3)c2C#N)C(C)(C)N1
? | COc1ccc(/C=C/C(=O)OCc2csc(-c3ccccc3)n2)cc1OC
? | c1coc(C2Nc3ccccc3C3OCCC23)c1 (configuration not stated)
-17% | Cc1ccc(C(C)NC(=O)c2cc(C)oc2C)cc1 (configuration not stated)

A second format for 4 compounds above:
> COC(=O)C1C(c2ccccc2)C(C(=O)N2CCN(C)CC2)C1c1ccccc1 (configuration not stated)
  HPGD block = -1%

> O=C(OCc1ccc(COC(=O)c2ccccn2)cc1)c1ccccn1
  HPGD block = -15%

> COc1ccc(-c2noc(COc3ccccc3OC)n2)cc1OC
  HPGD block = -6%

> CCN1CCN(CCNC(=O)c2ccc(CS(=O)(=O)c3c(Cl)cccc3Cl)o2)CC1
  HPGD block = -10%

(listing goes on)
HPGD block | molecule
-9% | Cc1ccc(CNC(=O)c2cccc(S(C)(=O)=O)c2)cc1
-5% | CN1C(=S)SC(N2OC3C(=O)N(c4ccccc4)C(=O)C3C2c2ccc(Cl)cc2)C1(C)C (configuration not stated)
-1% | CN(CC(O)COc1c(F)cc(Br)cc1F)C1CCCCC1 (configuration not stated)
-11% | COc1ccccc1CNC(=O)COC(=O)c1ccc(NC(N)=O)cc1
? | O=C(CCc1ccccc1)Nc1cc2c(cc1Cl)OCCO2
3% | COc1ccc(NC2=NCCC(=O)N2Cc2cccs2)cc1
-18% | COc1ccc(CNc2cc([N+](=O)[O-])ccc2OC)cc1
-15% | O=C(OCC(=O)c1ccc(Cl)s1)c1ccc2ccccc2n1
-23% | CC(=O)Nc1ccc(S(=O)(=O)N(C)c2ccc(O)cc2)cc1
-14% | COC(=O)CSc1nc2cc(Cl)ccc2c(=O)n1C1CCCC1
-5% | Cn1nc(-c2ccc(N3CCOCC3)c(NS(=O)(=O)c3ccccc3)c2)c2ccccc2c1=O
6% | C/C(=N\NC(=O)c1nn(C)cc1Br)c1cccc(NC(=O)C(C)(C)C)c1

Next part
HPGD block | molecule
-9% | CCOC(=O)C(CC)/C(C)=N/NC(=O)c1ccc([N+](=O)[O-])cc1 (configuration not stated)
-16% | O=C(O)CCCC[C@H]1SC[C@H]2NC(=O)N[C@@H]21
-18% | CCOc1ccc(CN(C(=O)c2oc3ccccc3c2C)C2CCS(=O)(=O)C2)cc1 (configuration not stated)
-1% | Cc1ccccc1C(=O)NNC(=O)Cc1cccc2ccccc12
-14% | CCOC(=O)c1c(/N=C/c2cc(OC)cc([N+](=O)[O-])c2O)sc(C)c1C
-4% | CC(C)(C)NC(=O)Cn1nnc(-c2ccccc2NC(=O)c2cnccn2)n1
-7% | COc1ccc(C)cc1Nc1nc(-c2c[nH]c3ccccc23)cs1
-9% | CCCCSc1ccc(NC(=O)c2cccnc2)cc1
-5% | CCOC(=O)C1CCN(C(=O)CN(C)S(=O)(=O)c2cc(C)ccc2OC)CC1
-2% | CC(=O)O[C@]1(C)CC[C@]23CC1C(C)(C)C2CC[C@@H]3C (some centres not stated)
-14% | COc1cc(C(=O)Nc2nnc(CC(C)(C)C)s2)c([N+](=O)[O-])cc1OC
-16% | COc1ccc(C(=O)O/N=C(\N)Cc2ccc(Cl)cc2Cl)cc1OC

The results go on:
HPGD block | molecule
-5% | Cc1cc(C2(c3cc(C)c(O)c(C(=O)O)c3)OS(=O)(=O)c3ccccc32)cc(C(=O)O)c1O
-11% | COc1ccccc1NC(=O)CN1CCCCC1
-4% | Oc1ccc2ccccc2c1C=NCc1c(O)ccc2ccccc12
-16% | O=S(=O)(c1cccc(-c2nc3n(n2)Cc2ccccc2-3)c1)N1CCCCC1
-1% | CC(=O)Nc1cccc(S(=O)(=O)N2CCCCCC2)c1
-7% | Nc1nc(-c2cccnc2)cc(-c2cc(-c3cccnc3)nc(N)n2)n1
32µM* | O=C(c1ccco1)[C@@H]1[C@@H]2C(=O)N(c3ccc(F)cc3)C(=O)[C@@H]2C2c3ccccc3C=CN21 (some centres not stated)
-8% | Cc1nn(-c2ccccc2)c(C)c1/C=N/NC(=O)CSc1nnc(SCc2ccc(Cl)cc2)s1
-1% | COc1ccc(CCNC(=O)CCNS(=O)(=O)c2ccc3c(c2)CCN3C(C)=O)cc1OC
-3% | CCCOc1ccc(N2C(=O)CC(SC(=NCC)NCC)C2=O)cc1 (configuration not stated)
? | CCOc1ccc2c(C)c(Cl)c(=O)oc2c1
3% | COc1ccc(/C=N/NC(=O)CCCC(=O)NC2CCCCC2)cc1

Next results
HPGD block | molecule
10µM* | COc1ccc(N2CSC3=C(C#N)C(c4cc(OC)c(OC)cc4OC)CC(=O)N3C2)c(OC)c1 (configuration not stated)
-11% | O=C(Nc1cccc(C(=O)N2CCOCC2)c1)c1ncn[nH]1
-15% | COc1ccccc1Nc1nc(-c2sc(NC(=O)C(C)(C)C)nc2C)cs1
-2% | CC1CCN(CCCNC(=O)c2n[nH]c(=O)c3ccccc23)CC1
-19% | CCNC(=O)Cc1ccc(Br)cc1
4% | CCn1nnnc1SCC(=O)N1CCOCC1
25µM* | O=C1NC(=S)S/C1=C1\Sc2ccccc2N1CCCS(=O)(=O)O
-3% | O=C(Nc1ccccc1)NC1(C(=O)NCc2ccco2)CCCCC1
-6% | O=C(O)/C(Cc1cn[nH]n1)=N\O
-17% | O=C(CCc1ccccc1)Nc1nc2ccc(S(=O)(=O)N3CCOCC3)cc2s1
-24% | O=C(O)COc1ccc(-c2nnn(Cc3ccccc3F)n2)cc1
-7% | CCn1c(COc2ccc(Cl)cc2)nnc1SCC(=O)Nc1ccc2c(c1)OCCO2

3 compounds already listed, ordered by the value under HPGD block, lowest first:
SMILES | HPGD block
O=C(O)COc1ccc(-c2nnn(Cc3ccccc3F)n2)cc1 | -24%
CCn1c(COc2ccc(Cl)cc2)nnc1SCC(=O)Nc1ccc2c(c1)OCCO2 | -7%
O=C(Nc1ccccc1)NC1(C(=O)NCc2ccco2)CCCCC1 | -3%

More records follow.
HPGD block | molecule
-18% | Cc1cccc(NC(=S)NC(=O)CCc2ccccc2)c1
-1% | N=c1c2c(-c3ccccc3)c(-c3ccccc3)n(Cc3ccco3)c2ncn1CCN1CCOCC1
-7% | CCCS(=O)(=O)Nc1c(C(=O)OC)[nH]c2ccccc12
-6% | O=C(O)C1CCCCN1S(=O)(=O)c1ccccc1 (configuration not stated)
? | N#Cc1ccc2ccn(CC(=O)N3CCCc4ccccc43)c2c1
-15% | NC(=O)Cn1c(=O)n(CCc2ccccc2)c(=O)c2c3c(sc21)CCCC3
1.1µM* | Cc1ccc(-c2n[nH]c(=S)n2/N=C/c2c(C)nn(-c3ccccc3)c2C)cc1
-10% | Cc1cc(O)cc(O)c1C(=O)OC1(C)C(=O)C=C2C=C(/C=C/CO)OC=C2C1=O (configuration not stated)
? | O=C(O)Cn1nnnc1-c1ccc(F)cc1
-3% | Cc1[nH]c2ccc(Br)cc2c(=O)c1CN1CCOCC1
-6% | O=c1c(Cl)c(Nc2cccc(Cl)c2)cnn1-c1nc2ccccc2s1
-16% | COc1ccc(OC)c(NC(=O)Cc2coc3cc(C)cc(C)c23)c1

The results go on.
HPGD block | molecule
-6% | CC1(C(=O)NCc2cccnc2)CCC(=O)N1Cc1cccs1 (configuration not stated)
-19% | O=[N+]([O-])c1ccc(Oc2cccc(F)c2)c2ccncc12
-10% | COc1cc([N+](=O)[O-])c(C(=O)N2CCOCC2)c([N+](=O)[O-])c1
-1% | O=C(c1cnccn1)N1CCC2(CC1)CN(Cc1cc(C(F)(F)F)cc(C(F)(F)F)c1)C2
-7% | O=c1c2ccccc2nc(-c2ccccc2)n1CCCN1CCOCC1
1% | COC(=O)c1ccc(NC(=O)CS(=O)(=O)Cc2ccccc2)cc1
-9%&-5% | Cn1c(=O)[nH]c2ncn(C)c2c1=O
-10% | CN1c2ccccc2N(C)C1c1ccc2c(c1)OCO2
11µM* | N[C@H](CCC(=O)N[C@H](CSN=O)C(=O)NCC(=O)O)C(=O)O
-26% | C=CCn1c(SCC(=O)NCC2CCCO2)nc2scc(-c3ccco3)c2c1=O (configuration not stated)
14µM* | Oc1ccccc1C(=S)N1CCCCC1
-14% | Cc1nc(NC(=O)CSc2nnc(-c3ccc4c(c3)OCO4)o2)c(Cl)cc1Cl

Reprinted at random: 2 compounds from above
HPGD block | molecule
-26% | C=CCn1c(SCC(=O)NCC2CCCO2)nc2scc(-c3ccco3)c2c1=O (configuration not stated)
-6% | CC1(C(=O)NCc2cccnc2)CCC(=O)N1Cc1cccs1 (configuration not stated)

Additional records follow.
HPGD block | molecule
-15% | CCN(CC)S(=O)(=O)c1ccc(-c2nnc(SCC(=O)Nc3ccc(OC)cc3)o2)cc1
? | O=C(CSCCSCC(=O)c1ccco1)c1ccco1
-8% | C=CCn1c(SCC(=O)NCc2ccccc2)nnc1-c1ccccc1O
-10% | COC(=O)N1CCC2(CC1)CN(C(c1ccccc1)c1ccccc1)C2
-15% | O=c1cc(NCCO)c2ccccc2o1
4% | O=C(CCS(=O)(=O)c1ccc(Br)s1)NCc1ccccc1
-20% | Cc1cc(C(F)F)n2nc(C(=O)Nc3sc4c(c3C(N)=O)CCC4)nc2n1
20µM* | COc1cccc(C2CC(C(F)(F)F)n3ncc(C(=O)NCc4ccco4)c3N2)c1 (configuration not stated)
-16% | CCOC(=O)N1CCN(Cc2nc3c(c(=O)n(C)c(=O)n3C)n2CCC(C)C)CC1
-12% | Cc1ccc(N2C(=O)CSC23C(=O)Nc2ccccc23)cc1 (configuration not stated)
-11% | CC(C(N)=O)N1C(=O)C2C3C=CC(C3)C2C1=O (configuration not stated)
-9% | c1cc(-c2sc(-c3ccncc3)c(-c3ccncc3)c2-c2ccncc2)ccn1

Continued.
HPGD block | molecule
-2% | CCCNC(=O)C(=O)NCCC1=CCCCC1
-10% | CCOC(=O)c1sc2nc(C)cc(C)c2c1NC(=O)c1ccco1
14µM* | CC(C)(C)C1CCc2c(sc(NC(=O)CSc3ncn[nH]3)c2C#N)C1 (configuration not stated)
-18% | Cc1cnc(C(=O)Nc2nccs2)cn1
-22% | COc1ccc(NC(=O)c2cccs2)cc1O
-6% | CCOC(=O)CSc1n[nH]c(NC(=O)c2cccc(C)c2)n1
-18% | CC1=C(C(=O)O)N2C(=O)C(NC(=O)C(N)C3=CCC=CC3)C2SC1 (configuration not stated)
? | CCOC(=O)c1c(NC(=O)CSc2nnc(-c3ccccc3C)n2C)sc(C(C)=O)c1C
-20% | Cc1cccc(NC(=O)COc2ccc3oc4c(c3c2)CCCC4)n1
35µM* | CCc1ccc(C(=O)CSc2n[nH]c(C)n2)cc1
